Bioassay records deposited in PubChem by several laboratories.
Arbovirus anti = antivirals against arbovirus infection. AID 1251. 200,000 tested, 0.37% active. arbovirus infection cell-based antiviral screen. inhibition, % at 10 µM;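 active means inhibition from about 30%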;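 further: bluetongue infection of BSR cells; cell survival read as ATP light after 72 h; 0% = infected wells without compound and 100% = uninfected wells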
Mtb betalactam = beta-lactam sensitization of Mtb H37Rv; M. tuberculosis H37Rv growth with meropenem, percent inhibition; hits of this screen are not shown here; inhibition, % at 25 µM; 330,000 tested, 0.27% active;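 active means about 74% or more and at least 40 points above the plate without the antibiotic, then above 30% in a dose series; inconclusive means first-round hits that could not be retested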;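 further: growth measured after seven days incubation then overnight dye step; 0% = bacteria only wells and 100% = bacteria with antibiotic; twin plates without the antibiotic show which effects depend on it; some results filed as inactive read as strong as hits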
RecA splice inh = inhibitors of M. tuberculosis RecA intein splicing | 290,000 tested, 0.75% active | P9WHJ3 | AID 2221 | cell-free RecA intein splicing, fluorescence | inhibition, %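 (about 9 µM by stock and volumes)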; in the data active means inhibition above about 30%; inconclusive means no clear call, values can overlap the other calls;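 further: 0% = vehicle wells and 100% = reference inhibitor control wells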
Target sequence (P9WHJ3 whole entry, looked up, canonical isoform): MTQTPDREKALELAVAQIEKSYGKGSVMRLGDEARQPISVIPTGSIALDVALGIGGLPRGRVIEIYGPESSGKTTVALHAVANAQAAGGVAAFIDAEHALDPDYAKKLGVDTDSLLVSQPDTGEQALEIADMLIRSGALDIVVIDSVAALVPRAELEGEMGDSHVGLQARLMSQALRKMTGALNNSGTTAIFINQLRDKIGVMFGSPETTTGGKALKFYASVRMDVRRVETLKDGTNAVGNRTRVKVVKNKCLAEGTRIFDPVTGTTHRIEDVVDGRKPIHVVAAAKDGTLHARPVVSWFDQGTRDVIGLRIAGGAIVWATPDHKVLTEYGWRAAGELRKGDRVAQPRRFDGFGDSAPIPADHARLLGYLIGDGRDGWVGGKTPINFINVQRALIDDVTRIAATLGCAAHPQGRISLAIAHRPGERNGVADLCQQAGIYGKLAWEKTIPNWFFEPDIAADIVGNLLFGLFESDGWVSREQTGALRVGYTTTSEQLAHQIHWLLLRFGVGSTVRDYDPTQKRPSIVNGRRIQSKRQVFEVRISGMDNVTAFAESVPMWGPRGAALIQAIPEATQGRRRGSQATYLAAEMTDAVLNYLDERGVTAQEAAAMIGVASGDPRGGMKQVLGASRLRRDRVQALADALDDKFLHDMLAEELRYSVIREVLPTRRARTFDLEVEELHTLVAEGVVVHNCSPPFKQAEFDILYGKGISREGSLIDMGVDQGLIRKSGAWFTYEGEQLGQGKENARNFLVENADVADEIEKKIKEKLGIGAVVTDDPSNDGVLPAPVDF
Mtb growth = M. tuberculosis H37Rv growth inhibitors, H37Rv strain (AID 1626); 220,000 tested, 0.95% active; M. tuberculosis H37Rv growth inhibition; higher % means a stronger effect; inhibition, % at 10 µM; hits with a dose series show IC50 in µM;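 active means confirmed in a dose series; inconclusive means inhibition above 80% but not taken into the dose series; inactive means below 80% or under 30% at every dose of the series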;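 further: bacteria incubated seven days before Alamar blue readout; 0% = bacteria only wells and 100% = bacteria with antibiotic wells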
YopH PTP inh = YopH (Yersinia) phosphatase inhibition; inhibition, %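 (about 10 µM by stock and volumes)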; AID 898; fluorescence Ex485/Em525; 140,000 tested, 0.16% active;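 active means inhibition of 50% or more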;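 further: controls were vehicle for no effect and minimum signal wells for full effect; inactives centre near -20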
Arbovirus anti repeat = further read-out of Arbovirus anti, marked with its call; inhibition, %; measured here: 10K subset replicate screen; many hits read low in the repeat;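 first of two repeat runs on a subset; 0% = infected and 100% = uninfected wells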
Starred values were filed as active, the others as inactive; ? = inconclusive; · = not tested or not shown.

SMILES	Arbovirus anti	Mtb betalactam	RecA splice inh	Mtb growth	YopH PTP inh	others
COc1cccc(C2CC(c3ccccc3C)n3nc(N)nc3N2)c1 (configuration not stated)	5.4	-3.5	0.6	5.3%	-22.0	Arbovirus anti repeat=0.5
Cc1ccc(NS(=O)(=O)c2ccc3c(c2)NC(=O)CC(=O)N3)cc1C	21.9	-3.6	-2.9	-5.8%	·
CCN(CC)c1ccc(/C=N/NC(=O)c2cnccn2)c(O)c1	·	50.4	1.0	-4.6%	·
CCc1ccc2oc(=O)cc(CN3CCOCC3)c2c1	3.0	-4.1	-0.1	-12.4%	-44.5
O=c1[nH]c(/C=C\c2cccnc2)c([N+](=O)[O-])c(=O)[nH]1	-1.6	-1.6	1.5	-10.6%	·
CCOC(=O)c1ccc(N=C2SC(C(=O)NC)CC(=O)N2CCc2ccccc2)cc1 (configuration not stated)	·	2.9	·	0.5%	·
CC1CCCC(C)N1NC(=S)Nc1ccc(OC(F)F)cc1 (configuration not stated)	2.5	-7.7	1.3	2.1%	-27.9
O=C(COc1coc(CN2CCCc3ccccc32)cc1=O)Nc1cccc([N+](=O)[O-])c1	·	1.0	-2.8	·	·
O=C(/C=C/c1ccco1)NCC1COc2ccccc2O1 (configuration not stated)	·	-8.8	6.8	4.5%	·
COc1ccc(S(=O)(=O)Nc2cc(SCC(=O)O)c(O)c3ccccc23)cc1	·	8.2	96.4*	·	·
COc1cc(-c2nc(-c3ccc4c(c3)-c3ccccc3S4(=O)=O)c(-c3ccccc3)[nH]2)cc(OC)c1OC	-25.6	89.8	-59.0	23.4%	-15.6
COC(=O)c1cnn(C(=O)c2cc(OC)ccc2Br)c1N	-0.3	-9.8	0.6	-7.6%	-41.0
O=C(O)CSC12CC3CC(C1)CC(C(=O)O)(C3)C2	·	5.3	-0.2	-9.1%	·
CNc1oc(-c2ccccc2Cl)nc1C#N	-5.2	-7.4	-0.1	-13.5%	-12.5
CCOC(=O)C(C)(C)NS(=O)(=O)c1ccc(Cl)c([N+](=O)[O-])c1	0.9	-4.0	-0.1	3.4%	-27.7
COCCCNC(=S)NNC(=O)C1CC1c1ccc(C(C)(C)C)cc1 (configuration not stated)	-5.1	·	1.0	12.4%	·
CC(=O)c1cccc(NC(=O)CCS(=O)(=O)c2cccc3nsnc23)c1	2.6	-5.5	2.2	-2.4%	-19.4
CCCc1nc2ccccc2c(C(=O)OC2CCOC2=O)c1CC (configuration not stated)	-0.2	-6.6	1.1	-16.2%	-22.2
CC(C)Oc1ccc(C(=O)NC(=S)N2CCOCC2)cc1	2.9	2.6	2.0	-9.8%	-22.2
CCSc1nnc(-c2cccc(S(=O)(=O)N(C)C)c2)n1-c1cc(OC)ccc1OC	6.0	-4.6	-2.3	-2.4%	-44.8
CCOc1ccc(CN2CCN(Cc3cc4c(cc3Cl)OCO4)CC2CCO)cc1 (configuration not stated)	·	-5.6	-1.1	0.6%	·
O=C(c1sc2cc([N+](=O)[O-])ccc2c1Cl)N1CCCCC1	-6.8	1.3	0.2	4.7%	-20.9
Cc1cccc(S(=O)(=O)NC2CCCCCCC2)c1	·	-5.4	1.1	·	·
O=C(c1ccco1)N1CCN(C(=O)C2CC(=O)N(c3ccccc3)C2)CC1 (configuration not stated)	·	0.2	-3.1	·	·
COc1cc(/C=C/C(=O)OC(C)C(=O)NC2CCCCC2C)cc(Cl)c1OC (configuration not stated)	·	-2.1	-1.7	·	·
Cn1c(=O)c2c(nc(N3CCOCC3)n2CCCNC2=NCCCCC2)n(C)c1=O	1.4	1.9	-2.5	-3.1%	18.1
C=CCn1c(C)nc2ccccc2c1=O	13.2	0.8	2.4	2.2%	·
COc1ccc(NC(=O)CSc2nnnn2-c2ccccc2OC)c(OC)c1	·	-5.2	1.9	·	·
Cc1ccc(CSc2ncnc3c2cnn3Cc2ccccc2)cc1	-4.0	3.9	-4.1	10.6%	-15.4
COc1ccc(OCCCC(=O)OCC(=O)Nc2c(C)nn(-c3ccccc3)c2C)cc1	·	2.9	0.1	·	·
Cc1cccc(-n2cnc3c(sc4nc(N5CCOCC5)c5c(c43)CCCC5)c2=O)c1	·	65.4	8.1	22.1%	·
C(=N\Nc1nc(N2CCOCC2)nc(N2CCOCC2)n1)/c1ccncc1	5.1	-4.9	-0.3	2.3%	-20.7
COc1ccc(OCC(=O)NNC(=O)Nc2cccc(Cl)c2)cc1	·	7.5	-1.0	·	·
O=C(CN1C(=O)NC2(CCCCC2)C1=O)Nc1cc(C(F)(F)F)ccc1N1CCCCC1	·	-0.6	-0.6	·	·
CCc1cc2c(=O)c(-c3ccc(F)cc3)c(C)oc2cc1OCC(=O)O	7.2	0.9	-1.2	-2.8%	·
CN(C)/N=C/c1ccc(OC(=O)c2cccc([N+](=O)[O-])c2)cc1	1.5	69.6	1.2	5.7%	·
COc1ccc(Nc2nc(N3CCOCC3)nc(N3CCOCC3)n2)cc1Cl	·	1.1	1.5	·	·
O=C(CSc1nc2c(sc3ccccc32)c(=O)n1CCCN1CCOCC1)NCC1CCCO1 (configuration not stated)	4.9	2.3	-2.2	4.8%	·
CCc1nc2ccc(C(=O)N3CCN(c4ccc([N+](=O)[O-])cc4)CC3)cc2nc1CC	·	82.8	4.5	·	·
O=C1CCC(C(=O)Nc2cccc(Br)c2)N1 (configuration not stated)	·	-1.0	0.4	·	·

The final 5 records of the section above open the next one.
SMILES	Arbovirus anti	Mtb betalactam	RecA splice inh	Mtb growth	YopH PTP inh	others
CN(C)/N=C/c1ccc(OC(=O)c2cccc([N+](=O)[O-])c2)cc1	1.5	69.6	1.2	5.7%	·
COc1ccc(Nc2nc(N3CCOCC3)nc(N3CCOCC3)n2)cc1Cl	·	1.1	1.5	·	·
O=C(CSc1nc2c(sc3ccccc32)c(=O)n1CCCN1CCOCC1)NCC1CCCO1 (configuration not stated)	4.9	2.3	-2.2	4.8%	·
CCc1nc2ccc(C(=O)N3CCN(c4ccc([N+](=O)[O-])cc4)CC3)cc2nc1CC	·	82.8	4.5	·	·
O=C1CCC(C(=O)Nc2cccc(Br)c2)N1 (configuration not stated)	·	-1.0	0.4	·	·
CCC(=O)Nc1ccc(Oc2ccc(NC(=O)CC)c(NC(=O)CC)c2)cc1	-0.9	-5.5	1.2	1.2%	·
CC(=O)N/C(=C\c1ccc(F)cc1)C(=O)NC(Cc1c[nH]c2ccccc12)C(=O)O (configuration not stated)	2.5	-3.5	-2.3	·	-29.6
COC(=O)C1=C(C)N=c2s/c(=C/c3cccs3)c(=O)n2C1c1cccs1 (configuration not stated)	-10.6	6.8	0.1	-9.0%	-46.2
Cc1ccc(-c2noc(C3CCCN(C(=O)c4ccc(C(C)(C)C)cc4)C3)n2)o1 (configuration not stated)	·	86.5	7.5	·	·
CCOC(=O)Cc1csc2nc(-c3ccccc3)nn12	·	-5.9	-0.5	-1.6%	·
COc1cc(C)c(/C=C(\C#N)C(=O)Nc2ccc(C)cc2)cc1C(C)C	5.0	1.5	3.6	-0.9%	-14.1
CNC(=O)/C(C#N)=C/c1c(N2CCN(c3ccccc3)CC2)nc2c(C)cccn2c1=O	·	-1.1	3.0	·	·
Cc1ccc(C)c(NC(=O)Cc2ccc(S(=O)(=O)N3CCCCC3)s2)c1	-1.3	2.2	0.5	9.9%	-23.2
COc1ccc(NC(=O)C/C(C)=N/NC(=O)c2ccncc2)c([N+](=O)[O-])c1	0.3	98.8	-12.6	?	·
Cc1ccc(NC(=O)CN(C)S(=O)(=O)c2cccs2)cc1F	6.4	-4.4	0.6	1.9%	40.7
Cc1ccc2cc(NC(=O)c3ccccc3C)ccc2n1	·	3.3	0.0	·	·
CCOC(=O)C1=C(C)NC(SCC(=O)OC)=C(C#N)C1c1ccc(C(=O)OC)cc1 (configuration not stated)	-4.3	51.3	3.0	-5.6%	-37.5
CCOC(=O)/C(C#N)=c1/s/c(=C2\C=Cc3ccccc3N2CC)c(=O)n1CC	4.8	14.2	2.3	·	-28.1
COc1ccccc1C(=O)N1C(CC(=O)Nc2ccccc2C)C(=O)NC2CCCCC21 (configuration not stated)	·	1.5	-3.9	·	·
O=C(Nc1ccccc1)N1CCCN(Cc2c(F)cccc2Cl)CC1	·	-5.4	-3.0	3.9%	·
CCN(Cc1ccccc1)C(=O)c1cccc(S(=O)(=O)N2CCN(Cc3ccccc3)CC2)c1	·	0.8	9.7	·	·
Cc1ccc(S(=O)(=O)N(C)C)cc1NC(=O)CN1CCN(Cc2ccccc2)CC1	-3.4	-10.5	-1.6	5.5%	·
O=C(NCCc1ccccn1)/C(=C/c1ccco1)NC(=O)c1ccccc1	-2.7	4.0	-1.4	-9.2%	·
CCCOc1ccccc1C(=O)N(Cc1ccco1)C1CCS(=O)(=O)C1 (configuration not stated)	9.2	0.4	0.7	-0.8%	-34.6
C/C(CC(=O)Nc1ccccn1)=N\NC(=O)c1ccncc1	·	99.0	84.7*	·	·
C/C(=N\NC(=O)c1ccccc1)c1cccc(Br)c1	7.3	-4.6	1.4	-1.2%	·
COc1cc2cc(C(c3nnnn3C(C)(C)C)N3CCC(C)CC3)c(=O)[nH]c2cc1OC (configuration not stated)	-10.1	-7.7	-1.0	-6.5%	-20.3
Cc1ccc(S(=O)(=O)N(C)c2ccc(OCc3cccc(C)c3)cc2)cc1	·	8.8	1.8	·	·
Cc1ccc(-n2nnnc2SC(C)C(N)=O)c(C)c1 (configuration not stated)	-2.1	-3.4	-0.8	-14.3%	-53.8
Cn1c2ccccc2c(=O)c2c(=O)n(-c3ccccc3)c(C3CCCCC3)nc21	-0.1	-5.7	1.5	16.3%	-26.9
O=S(=O)(NC1CCCCC1)OCC(Cl)(Cl)Cl	·	6.8	-0.8	·	·
CN1CCC(=C(c2ccc(Cl)cc2)c2ccccn2)CC1	·	7.8	0.0	-9.5%	·
CC(C)Cn1c(SCC(=O)N2CCc3ccccc3C2)nc2cc(Cl)ccc2c1=O	16.5	6.3	3.3	6.6%	-26.5
Cc1ccc(SC[C@H](c2ccccc2)N2CCN(CCc3ccccc3)CCC2=O)cc1	·	12.8	17.7	1.0%	·
COc1cc(C2=NOC(C(=O)Nc3ccc(C(C)=O)cc3)C2)cc(OC)c1OC (configuration not stated)	-4.8	-2.6	-0.8	-3.5%	-47.7
Nc1nc(N)c2sc3nc4c(cc3c2n1)CCC4	-4.4	-15.1	1.3	0.2%	-31.0
Fc1ccc(C(c2nnnn2C2CCCC2)N2CCc3ccccc32)cc1 (configuration not stated)	-4.4	8.1	9.6	-7.1%	-41.9
CCOCCCn1c(=S)[nH]c2cc(C(=O)NC3CCCC(C)C3C)ccc2c1=O (configuration not stated)	·	3.7	1.7	·	·
O=C(Nc1cc(C(F)(F)F)ccc1N1CCOCC1)c1ccco1	-2.7	0.8	0.2	-2.7%	-3.1
Nc1c(C(=O)NCC2CCCO2)sc2nc3c(c(-c4ccco4)c12)CC/C3=C\c1ccco1 (configuration not stated)	7.8	·	·	-3.6%	14.8
CC(C)=C1C2CCC1C1C(=O)N(c3nccs3)C(=O)C21 (configuration not stated)	6.4	-1.6	2.1	-3.5%	6.2
CC(C)OC(=O)CSc1nnc(-c2cnccn2)n1-c1ccccc1	10.9	0.9	-2.5	-8.1%	-37.0
COc1cccc(CN(C)C(=O)c2ccccc2SCC(=O)N2CCCC2)c1	·	-15.9	3.3	·	·
COc1ccc(-n2c(Cn3nc(C(F)(F)F)cc3C)n[nH]c2=S)cc1	-3.5	-4.7	1.8	-4.8%	-24.4
O=C(NNc1ccccc1[N+](=O)[O-])Nc1ccc(F)cc1F	·	1.0	-3.4	·	·
COc1ccccc1N(CC(=O)NC1CCCC1)C(=O)CNC(=O)c1cccs1	·	-1.2	1.2	·	·
N=c1n(Cc2ccccc2)c2ccccc2n1Cc1ccccc1	-1.7	7.3	0.8	10.8%	-10.8
C=CCn1c(SCC(=O)c2ccc(OC)cc2)nnc1-c1ccc2c(c1)OCO2	2.6	1.7	·	0.2%	-33.8
O=C(Nc1cccc(C(=O)O)c1)/C(=C\c1ccc2c(c1)OCO2)NC(=O)c1ccco1	6.6	-8.1	-2.8	-4.6%	·
O=C(Nc1ccc(Cl)cc1)Nc1ccc(Oc2cccnc2)nc1	·	-2.2	0.9	-2.0%	·
CN(C)CCCOC(=O)Cc1ccc(Cl)cc1	4.4	16.8	·	-8.8%	-20.3
CC1CC(C)CN(S(=O)(=O)c2ccc3c(c2)CC(C)N3C(=O)C2CCC2)C1 (configuration not stated)	·	5.0	8.9	·	·
CC(C)(C)NC(=O)C(c1ccccc1F)N(Cc1ccco1)C(=O)c1csnn1 (configuration not stated)	-1.5	3.8	-8.4	-1.6%	-45.9
Cc1ncc([N+](=O)[O-])n1CC(=O)Nc1ccc(F)c(Cl)c1	·	-10.1	0.4	·	·

Only part of the results is shown; count on the stated rates, not on these rows.
